Screening data as filed in PubChem.
Prx2 Sm inh – Schistosoma Mansoni Peroxiredoxins (Prx2); Schistosoma mansoni peroxiredoxin 2 (Prx2); S. mansoni Prx2 activity coupled to TGR/GSH (TGR is thioredoxin glutathione reductase), NADPH fluorescence loss, qHTS; some inactives read as strong as hits; Potency, µM; 65,000 tested, 0.07% active; AID 448, 2006; active means full or partial inhibition curve with a strong effect at the top dose; inconclusive means weaker partial or single-point curve; inactive means no accepted curve; also: series up to 57 µM; many of its hits are not listed in these tables
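Prx2 activity was followed as the loss of NADPH fluorescence (ex 365/em 450 nm), read every 30 sec for 8 min after H2O2 start. The enzyme mix (50 nM Prx2, 25 nM TGR, GSH, NADPH; pH 7.4 phosphate buffer) was incubated with compound for 15 min at room temperature first.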
LT uptake inh – qHTS Assay for Anthrax Lethal Toxin Internalization; Cells, anthrax lethal toxin internalization, FRET ratio (460/530); Potency, µM (doses to about 40 µM), for inactives: at the top dose activity change, negative = inhibition, most hits filed as inhibitors; 70,000 tested, 0.67% active; active = well fitted falling ratio curve with the 530 nm signal flat; inconclusive = other ratio curves, or a change in one channel alone; inactive = flat curves in the ratio and both channels; the % refers to the ratio; also: % is scaled to controls: 0 for no effect and ±100 for the full control effect; nearly all actives have a fitted effect of over 50% in size; tested in ME-180 cells; beta-lactamase reporter
An asterisk follows results filed as active; u = inconclusive; x = no result given; [ ] = another dose, or the depositor's remark. Potency is read from the fitted curve at half-maximal effect.

Under each structure: Prx2 Sm inh, LT uptake inh
> Cc1ccc(C2CC(c3ccccc3)n3ncnc3N2)cc1 (stereo not given)
→ >57, -12%
> O=C(Nc1ccccc1)N1CC2(CCN(C(=O)c3cnccn3)CC2)C1
→ >57, 3%
> CC(=O)C1=C(C)N=c2s/c(=C/c3ccc4c(c3)OCO4)c(=O)n2C1c1ccc(N(C)C)cc1 (stereo not given)
→ >57, -14%
> COc1ccc(NC(=O)Nc2nnc(N3CCC(C)CC3)s2)cc1OC
→ >57, -1%
> CN(C)c1nc(NS(=O)(=O)c2ccc(Cl)cc2)nc(N(C)C)n1
→ >57, -1%
> Cc1ccc2cc(CN(CCO)Cc3nnnn3Cc3ccc(F)cc3)c(=O)[nH]c2c1
→ >57, u
> CC(=O)N(Cc1cccnc1)Cc1cc2ccc(C)cc2[nH]c1=O
→ >57, -4%
> CN(CC(=O)Nc1cccnc1)S(=O)(=O)c1cc(Cl)ccc1Cl
→ >57, -5%
> CCOP(=S)(OCC)Oc1cc(C)nc(C(C)C)n1
→ x, -13%
> COc1cccc(/C=N/n2c(-c3ccco3)nc3ccccc3c2=O)c1
→ >57, -25%
> Cc1cccc(N(Cc2nnc3n2CCCCC3)C(=O)Nc2ccccc2)c1
→ >57, 6%
> Oc1ccc(-c2nc3ncccn3c2Nc2ccc3c(c2)OCCO3)cc1
→ >57, -14%
> COC(=O)[C@@]1(Cc2ccc(OC)cc2)[C@H]2c3cc(C(=O)N(C)C)n(Cc4ccc(OC(F)(F)F)cc4)c3C[C@H]2CN1C(=O)c1ccccc1
→ >57, -24%
> Cn1cccc1C(=O)NS(=O)(=O)c1ccccc1Cl
→ >57, -15%
> CN(c1ccc(C(=O)NCc2ccncc2)cc1)S(C)(=O)=O
→ >57, 4%
> O=C(Cn1nnc2ccccc2c1=O)NC1CCCc2ccccc21 (stereo not given)
→ >57, 2%
> COC(=O)c1ccccc1NC(=O)NC1CCN(Cc2ccccc2)CC1
→ >57, -9%
> CC(C)(C)n1c(O)c(C=Nc2ccc3c(c2)CCC3)c(=O)[nH]c1=O
→ >57, 16%
> CC(C)=C1C(=O)C(c2ccccc2)=C2CN3C(=O)N(CCc4ccccc4)C(=O)[C@]3(C)[C@H]21
→ >57, -16%
> C[N+](C)([O-])Cc1cc(-c2ccccc2)ccc1O
→ >57, -6%[8 µM]
> CCC(=O)N1CCN(CCN=CC2=C(O)CC(C)(C)CC2=O)CC1
→ x, 8%
> Brc1ccc(-c2nnc(-c3ccccc3Br)o2)cc1
→ x, -10%
> CCOC(=O)c1cc(C)n(-c2c(C)n(C)n(-c3ccccc3)c2=O)c1C
→ >57, -2%
> CCOC(=O)C1=C(C)N(C)C2(C)CC1c1ccccc1O2 (stereo not given)
→ >57, -6%
> CC1(C)CC(=O)C2=C(C1)NC(SCC(=O)Nc1ccccc1)=C(C#N)C2c1ccco1 (stereo not given)
→ >57, x
> N#C/C(=C\C1CC=CCC1)c1nc2ccccc2[nH]1 (stereo not given)
→ >57, 0%
> CCOc1ccc(C2=CS/C(=C(\C#N)c3nnc4n3CCCCC4)N2CC)cc1
→ >57, u
> Clc1ccccc1-c1nc(NCc2cccnc2)c2ccccc2n1
→ >57, -1%
> O=C(OCC(=O)N1CCCC1)c1ccccc1OCc1ccccc1
→ >57, 6%
> COCCCNC(=O)CCc1nc2cccnc2n1Cc1ccc(OC)cc1
→ >57, 19%
> CCC(=O)N1CCc2cc(Br)cc(S(=O)(=O)CCC(=O)NCC3CCCO3)c21 (stereo not given)
→ >57, 2%
> Cc1ccc(C)c(-c2nnc(OCC(=O)Nc3cc(C)on3)c3ccccc23)c1
→ >57, -7%
> CC(CCl)OC(C)CCl (stereo not given)
→ x, 12%
> Cc1ccc2cccc(S(=O)(=O)Nc3c(C)n(C)n(-c4ccccc4)c3=O)c2n1
→ >57, -4%
> CCOc1ccccc1NC(=O)C1CCCN(S(=O)(=O)c2cccc3nsnc23)C1 (stereo not given)
→ >57, 2%
> Cc1nc2cc(CO)ccc2s1
→ >57, 4%
> CCOc1ccccc1-c1nc(-c2ccc(NC(=O)Cc3ccccc3OC)cc2)no1
→ >57, u
> CCCCC#CC1C=CC(Oc2cc(OC)c(OC)c(OC)c2)C(CO)O1 (stereo not given)
→ x, -7%[8 µM]
> CCOC(=S)SCC(=O)O
→ >57, -9%[8 µM]
> COc1ccc(C(=O)N2CCC3(CCN(C(=O)Nc4cccc(C#N)c4)CC3)CC2)cc1
→ >57, 8%
> CCOC(=O)c1ccc(NS(=O)(=O)c2cc(-c3nnnn3CC)ccc2OC)cc1
→ x, 1%
> COc1ccc(C2C(C(=O)NCc3ccco3)CCC(=O)N2c2ccc(OC)cc2)cc1 (stereo not given)
→ >57, -20%
> COc1ccc(O)c(C=Nc2cc(C)on2)c1
→ >57, 23%
> Cc1nc(C)c(-c2csc(NCc3ccccc3)n2)s1
→ >57, 1%
> C=CCn1c(SCC(=O)Nc2cc(C)ccc2C)nnc1-c1cnccn1
→ >57, u
> COc1ccc(C(=O)NCCn2ccc3ccccc32)c(OC)c1
→ >57, -3%
> Cc1cc(OCC(=O)N2CCOCC2)ccc1NC(=O)C1CCCCC1
→ >57, x
> CCc1c(C)nc2cc(-c3ccc(OC)cc3)[nH]n2c1=O
→ >57, -5%
> O=C(Nc1nnc(CCc2ccccc2)s1)c1ccco1
→ x, 4%
> Cc1ccc(C(=O)[C@@H]2[C@@H]3[C@@H](C(=O)[C@@H]4OC[C@H]3O4)[C@@H]3C=Cc4ccccc4N23)cc1
→ >57, u

(listing goes on)
Under each structure: Prx2 Sm inh, LT uptake inh
> COC(=O)c1c(-c2cccs2)csc1NC(=O)CN1CCOCC1
→ >57, u
> O=C(O)[C@@H]1CS[C@@]2(CCCN(Cc3ccccc3)C2)N1
→ >57, -12%[8 µM]
> O=c1c2ccccc2nc(-c2ccco2)n1-c1ccccn1
→ x, 20%
> CN(CC(=O)O)Cc1c[nH]c2ccccc12
→ >57, -5%[8 µM]
> O=S(=O)(NCc1cn2ccccc2n1)c1cc(F)ccc1F
→ >57, 7%
> CC1Cc2ccccc2N1C(=O)CSc1nnc(-c2ccc(S(=O)(=O)N3CCCC3)cc2)o1 (stereo not given)
→ >57, -5%
> c1ccc(-n2cnnc2SCc2cn3ccsc3n2)cc1
→ >57, -13%
> COc1ccccc1S(=O)(=O)Cc1ccc(C(=O)NCCN2CCCCCC2)o1
→ >57, -17%
> COc1ccc2c(c1)CCCN2C(N)=O
→ x, 8%
> COc1ccc(CCC(=O)NC2=NCCS2)cc1OC
→ >57, -2%
> CC(=O)C1=C(C)Nc2ncnn2C1c1ccccc1OCc1ccccc1 (stereo not given)
→ >57, 11%
> O=S(=O)(c1cccc(-c2cn3cc(Cl)ccc3n2)c1)N1CCOCC1
→ >57, -4%
> CCN(CC)C(=O)Cn1c(=O)n(-c2ccccc2)c(=O)n1CC(=O)N(CC)CC
→ x, -6%
> O=C(NC1=NCCS1)c1nc(-c2ccccc2)n(-c2ccccc2)n1
→ >57, -1%
> CCN1CCN(Cc2ccc(NC(=O)Nc3ccccc3OC)cc2)CC1
→ >57, u
> CCN(Cc1cc(Cl)cc(C)c1O)Cc1c(O)ccc2ccccc12
→ >57, -11%[8 µM]
> Cc1c(N=C2Nc3cccc4cccc2c34)c(=O)n(-c2ccccc2)n1C
→ >57, -1%
> O/N=C/CCn1c(=S)sc2ccccc21
→ x, -13%
> CCOC(=O)c1cnn(-c2ncnc3c2cnn3Cc2ccccc2)c1N
→ x, -2%
> CCOc1cc(C(C#N)N2CCOCC2)ccc1OC (stereo not given)
→ >57, 3%

Entries of single compounds, looked up by structure:
`CC(C)(C)n1c(O)c(C=Nc2ccc3c(c2)CCC3)c(=O)[nH]c1=O` is listed as Prx2 Sm inh = >57; LT uptake inh = 16%
`O=C(Nc1ccccc1)N1CC2(CCN(C(=O)c3cnccn3)CC2)C1` is listed as Prx2 Sm inh = >57; LT uptake inh = 3%

More results:
Under each structure: Prx2 Sm inh, LT uptake inh
> O=C(CSc1nnc(-c2ccco2)n1CC1CCCO1)NC1CCCC1 (stereo not given)
→ >57, u
> CN(C)c1ccc(/C=c2\sc3n(c2=O)CCCN=3)cc1
→ >57, -3%
> O=C(c1ccncc1)N1CCC2(CCCN(c3ccncc3)C2)CC1
→ >57, -15%
> O=C(NCc1ccco1)c1ccccc1Nc1ccc(F)cc1
→ x, -29%
> CC(=O)Nc1c(OC(C)=O)ccc2c(C)cc(=O)oc12
→ >57, 17%
> COc1ccccc1CNc1ncncc1-c1ccccc1C
→ >57, -13%
> CS(=O)(=O)N1CCC(C(=O)NCCC2=CCCCC2)CC1
→ >57, -10%
> Cc1ccc2[nH]c(=O)c(CN(CCN3CCOCC3)C(=O)Nc3ccccc3F)cc2c1
→ >57, -4%
> Cn1c(=O)c2c(nc(CN3CCN(C(=O)c4ccco4)CC3)n2Cc2cccc(Cl)c2)n(C)c1=O
→ >57, -5%
> CN(C)Cc1c(C#N)c2ccccc2n1C
→ >57, 2%
> CCCc1cc(-c2n[nH]c(C)c2-c2ccc(C(=O)OCC)o2)c(O)cc1O
→ u, u
> CCOc1ccccc1-c1nc(-c2ccc(NC(=O)Cc3ccc(OC)cc3)cc2)no1
→ >57, -16%
> COc1ccc(-n2c(=O)c(-c3cn(C)c4ccccc34)nc3cncnc32)cc1
→ >57, u
> O=C(NCc1ccc(F)cc1)c1cc(S(=O)(=O)N2CCOCC2)ccc1F
→ >57, -3%
> COCCn1c(=O)c(-c2ccc(F)cc2)nc2cnc(Oc3cccc(Cl)c3)nc21
→ >57, u
> Cc1cc(NC(NC(=O)c2ccco2)(C(F)(F)F)C(F)(F)F)no1
→ >57, 13%
> Cc1nc(C)n(CC(O)COc2ccc3c(c2)CCC3)n1 (stereo not given)
→ >57, -6%
> COc1cc(-c2nnc(SCc3ccccc3Cl)o2)cc(OC)c1OC
→ >57, u
> COc1ccc(OC)c2[nH]c(=O)c(CCNC(=O)CC(C)C)cc12
→ >57, -3%
> CN(Cc1ccco1)c1ccnc(-c2cccnc2)n1
→ >57, u
> Cc1ccc(S(=O)(=O)NCC(=O)NC2CCCC2)cc1
→ >57, 3%
> CCCC(=O)Nc1cc(-c2nnc(OC)c3ccccc23)ccc1N1CCOCC1
→ >57, -8%
> CCOc1ccc(-c2noc(CCC(N)=O)n2)cc1OCC
→ >57, 0%
> CCOC(=O)Cc1csc(NC(=O)Cc2cccs2)n1
→ x, -2%
> COC(=O)c1cccc(S(=O)(=O)N2CCC(NC(=O)Nc3cccc(F)c3)CC2)c1
→ >57, -16%
> O=C(O)[C@H](Cc1ccc(O)c([N+](=O)[O-])c1)N1C(=O)c2ccccc2C1=O
→ >57, -1%[8 µM]
> CC(C)(C)N1C(=O)[C@H]2[C@H]3[C@H](O)[C@H](O)C/C(=N/OC[C@@H](O)COCc4ccco4)[C@H]3CC[C@@H]2C1=O
→ x, -5%[8 µM]
> CS(=O)(=O)Nc1cccc(-c2ccc3ncnc(Nc4ccc(F)cc4)c3c2)c1
→ >57, u
> CCOCCCNC(=O)c1cn(CC(C)C)c(=O)c2cc(OC)c(OC)cc12
→ >57, 7%
> CCOC(=O)CSCc1nc(-c2ccc(Cl)cc2)oc1C
→ >57, u
> COC(=O)C(C)N(C#N)c1nc(C)nc(C)n1 (stereo not given)
→ >57, u
> CC(C)(Oc1ccc(CCNC(=O)c2ccc(Cl)cc2)cc1)C(=O)O
→ >57, 8%[3.58 µM]
> Cc1nc2ccc(NC(=O)N3CCOCC3)cc2s1
→ >57, -3%
> CCOC(=O)CC(=O)Nc1nnc(CC(C)C)s1
→ >57, 3%
> O=C(Nc1ccc(S(=O)(=O)N2CCCCCC2)cc1)c1ccco1
→ >57, u
> O=C(NC1CCCc2ccccc21)C1CCN(c2c3c(nc4ncnn24)CCC3)CC1 (stereo not given)
→ >57, -1%
> COc1cc(OC)c(C2CC(=O)N3CN(C)CSC3=C2C#N)cc1OC (stereo not given)
→ >57, -23%
> CCOC(=O)CN(C)Cc1c[nH]c2ccccc12
→ >57, -6%
> CCCOc1nc2c(c(=O)n(C)c(=O)n2C)n1Cc1cccc2ccccc12
→ >57, x
> COc1cccc(C(=O)N2CCN(Cc3cccc(F)c3)CC2)c1
→ >57, 6%
> CN1CCN(Cc2nc3c(c(=O)n(C)c(=O)n3C)n2CCc2ccccc2)CC1
→ >57, 5%
> COc1ccc(CNC(=O)C2CCCN(c3nc4ccccc4o3)C2)c(OC)c1 (stereo not given)
→ >57, -1%
> O=C1NC(c2ccccc2)C(C(=O)c2cccs2)C(O)(C(F)(F)F)N1 (stereo not given)
→ >57, 5%
> O=C(CSc1nnc(-c2ccc(Cl)cc2)o1)N1CCN(c2ccccc2)CC1
→ >57, 0%
> COc1ccc(C2CC(=O)C(C=NCCCN3CCOCC3)=C(O)C2)cc1 (stereo not given)
→ >57, -3%
> CC1CN(S(=O)(=O)c2cccc(-c3cn4ccccc4n3)c2)CC(C)O1 (stereo not given)
→ >57, 13%
> CC/C(=C1/C(=O)CC(C)(C)C(C(=O)OC)C1=O)N1CCCC1 (stereo not given)
→ >57, u
> Cc1ccc(C(=O)Nc2ccc3c(c2)OCO3)cc1S(=O)(=O)N1CCCCC1
→ >57, x
> CCC(=NCCCN1CCOCC1)c1c(O)n(Cc2ccccc2)c(=O)[nH]c1=O
→ >57, -6%
> Cc1cc(C(C)(C)C)cc(S(=O)(=O)NCCO)c1C
→ >57, -8%

Some of the compounds tested; count on the stated rates, not on these rows.
